High-throughput results from PubChem.
Menin-MLL FL inh – inhibitors of human menin-MLL interaction, wild-type MLL peptide | Fluorescence polarization, fluorescein-MLL peptide displacement from menin | FP activity change, % at 61.4 µM | 290,000 tested, under 10 active | AID 1766; inconclusive = falling polarisation curve, or a change in total fluorescence; inactive = total fluorescence flat and polarisation flat or rising; no compound was filed as active; the % refers to the polarisation; negative = inhibition;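 further: % of control where 0% means no effect; inhibitors lower the polarisation; unlabelled MLL peptide was the positive control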
ClpP mod – qHTS Assay for Activators of ClpP; ATP-dependent Clp protease proteolytic subunit (Bacillus subtilis (strain 168)), P80244; purified B. subtilis ClpP, FRET peptide cleavage, 20 min; Potency, µM (series often up to 57.5 µM), for inactives: top-dose activity change, negative = active; 1.9% of 340,000 active; active = well fitted falling curve with a large enough effect; inconclusive = small, poorly fitted or top-dose-only effect; inactive = no such curve, though single readings can be large or run the other way; further: potency means the concentration at half of the fitted maximal effect; the source files actives as falling curves though it sought activators and does not explain the sign; nearly all actives have a fitted effect of over 65% in size; many hits overshoot -100%
Target sequence (P80244 whole entry, looked up): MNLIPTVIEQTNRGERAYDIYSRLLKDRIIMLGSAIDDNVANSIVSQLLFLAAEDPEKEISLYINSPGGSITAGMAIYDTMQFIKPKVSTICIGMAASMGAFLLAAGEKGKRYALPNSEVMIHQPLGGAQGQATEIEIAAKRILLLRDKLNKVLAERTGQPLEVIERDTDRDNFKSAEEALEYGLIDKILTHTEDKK
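FRET quenching reversal measured ClpP activation: 10 microg/mL B. subtilis ClpP at pH 8 with the FRET-FV decapeptide, read at 430 nm after 320 nm excitation. The 20-min minus 0-min signal was scaled between DMSO/no-enzyme wells and ADEP (5.8 microM final).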
gsp agonist – agonists of gsp mutant (McCune-Albright syndrome). Potency, µM (titrated, usually from 76.9 µM), for the others: at the highest dose activation (cAMP increase), hits mostly activators. gsp mutant cells, cAMP HTRF, 30 min; control for the full effect not named in the record. 0.13% of 340,000 active; active = well fitted activation curve with a large enough effect; inconclusive = small, poorly fitted or top-dose-only effect, or another doubt; inactive = no such curve, though single readings can be large or run the other way; cell line not stated here;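 further: phosphodiesterase inhibitor Ro 20-1724 added with compounds to block cAMP breakdown; potency means the concentration at half of the fitted maximal effect; nearly all actives have a fitted effect of over 60% in size; about a fifth of the inactives were tested at one dose only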
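Cells stably selected in G418 were plated at 2000/well, grown 16-24 hr, then given compounds in DMSO with the PDE inhibitor […] (300 uM solution added) for 30 min at 37C; cAMP was read by HTRF.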
gsp antag – gsp mutant antagonism; AID 624288; gsp-mutant cells, cAMP HTRF, 30 min; control for the full effect not named in the record; 0.4% of 340,000 active; Potency, µM (top dose mostly 76.9 µM), for the others: at the top dose activity change, negative = inhibition, usual class: inhibitors; active = falling curve of any shape with a large fitted effect; inconclusive = falling curve, mostly with a smaller effect; inactive = flat or rising curve; cell line not stated here;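 further: intracellular cAMP measured with PDE inhibitor Ro 20-1724 present during compound exposure; potency means the concentration at half of the fitted maximal effect; on the % scale 0 is the no-effect control and ±100 the full control effect; nearly all actives have a fitted effect of over 65% in size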
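G418-selected cells were plated in DMEM/10% FBS for 16-24 h at 37C, then treated with compounds plus the PDE inhibitor […] (300 uM solution added) for 30 min at 37C. Intracellular cAMP was measured by HTRF after 30 min lysis at room temperature.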
D2 PAM – potentiates the human D2 dopamine receptor allosterically | DiscoveRx D2 beta-arrestin cells, luminescence, 90 min; 100% = 57 uM dopamine signal | P14416 | 0.23% of 360,000 active | potentiation, % (concentration not given with the values); active = potentiation of 50% or more; inconclusive = 30% to 50%; inactive = 30% or less;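 further: compound concentration not given in the record; tested on top of an EC20 dose of dopamine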
Target sequence (P14416 whole entry, looked up): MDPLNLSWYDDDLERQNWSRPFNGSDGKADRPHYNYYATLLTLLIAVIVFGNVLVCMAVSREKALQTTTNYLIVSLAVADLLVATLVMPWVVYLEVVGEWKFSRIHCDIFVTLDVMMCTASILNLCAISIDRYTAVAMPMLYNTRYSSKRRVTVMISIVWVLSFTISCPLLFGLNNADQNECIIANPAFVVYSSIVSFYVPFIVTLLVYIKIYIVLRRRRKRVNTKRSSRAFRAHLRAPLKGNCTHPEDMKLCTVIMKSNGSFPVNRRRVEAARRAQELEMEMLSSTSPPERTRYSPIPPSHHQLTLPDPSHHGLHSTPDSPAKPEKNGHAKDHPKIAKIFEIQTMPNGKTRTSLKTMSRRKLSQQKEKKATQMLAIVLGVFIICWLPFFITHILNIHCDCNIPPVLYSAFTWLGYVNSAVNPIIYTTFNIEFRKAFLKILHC
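PathHunter D2 cells, attached overnight at 37 deg C, received compound in DMSO plus dopamine at EC20 (50 nM final) for 90 min at 37 deg C. Beta-arrestin recruitment was read as luminescence after 1 h with detection reagent at ambient temperature.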
TRPV1 potentiator – potentiators of human vanilloid receptor 1 (TRPV1); TRPV1-expressing cells, Fluo-8 calcium influx, capsaicin EC20 potentiation; host cell line not named in the record; control for the full effect not named in the record; 0.02% of 320,000 active; Q8NER1; potentiation, % at 8.33 µM; active means potentiation above 80%; inconclusive means 30% to 80%; inactive means below 30%; further: 0% is about no effect
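TRPV1-expressing cells were cultured overnight at 35.5C and loaded with Fluo-8 calcium dye for 40 to 90 min at room temperature. After a 10 s baseline, compound was added and calcium influx was read kinetically for 3 min (ex 480/em 520 nm).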
Sfp inh – inhibitors of Bacillus subtilis Sfp phosphopantetheinyl transferase | Biochemical Sfp PPTase activity, qHTS | Potency, µM, without a hit: max response, negative = inhibition, most hits filed as inhibitors | 3.5% of 310,000 active; active means well fitted inhibition curve with a large enough effect; inconclusive means small, poorly fitted or top-dose-only effect, or another doubt; inactive means no such curve, though single readings can be large or run the other way;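 further: the enzyme is Sfp with the accession as filed and its product quenches rhodamine fluorescence; potency means the concentration at half of the fitted maximal effect; 0% = enzyme reaction without inhibitor and -100% = no enzyme wells; top concentration of the series not given in the record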
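Fluorescence-quenching assay with 15 nM Sfp, 5 uM rhodamine-CoA and 12.5 uM BHQ-2-labelled ybbR peptide in pH 7.6 Hepes/MgCl2 buffer. Enzyme was pre-incubated with compound for 15 min at room temperature. Rate was taken from the 30-min fluorescence change (525/598 nm).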
Starred values were filed as active, the others as inactive; & = joins results of further samples; [ ] = another dose, or the depositor's remark.

How did Fc1ccc2nc(Nc3nc4c(s3)CCCC4)sc2c1 do in these assays?
Menin-MLL FL inh: inconclusive; ClpP mod: inconclusive; gsp agonist: -11%; gsp antag: -15%; D2 PAM: -14; TRPV1 potentiator: -6; Sfp inh: 24%

What do the screens show for `O=C(CNC(=O)c1ccccc1C(F)(F)F)N/N=C/c1cccs1`?
Menin-MLL FL inh: 0.8; ClpP mod: -0.6%; gsp agonist: inconclusive; gsp antag: 3%; D2 PAM: -7; TRPV1 potentiator: 0; Sfp inh: 20%

What do the screens show for `COc1ccc(Br)cc1C(=O)Nc1cccc(C)c1`?
Menin-MLL FL inh: 3.0; ClpP mod: -6.1%; gsp agonist: 7%; gsp antag: 3%; D2 PAM: -10; TRPV1 potentiator: -8; Sfp inh: 17%

Results for Cc1ccc(S(=O)(=O)N2CCCCC2)cc1NC(=O)CCCOc1ccccc1 ?
gsp agonist: -1%[15.4 µM]; gsp antag: -19%; D2 PAM: -23; TRPV1 potentiator: 1

How did CN(CCNC(=O)c1ccc(CS(=O)(=O)c2c(Cl)cccc2Cl)o1)CCc1ccccc1 do in these assays?
Menin-MLL FL inh: 4.1; ClpP mod: -1.3%; gsp agonist: 27%; gsp antag: 1%; D2 PAM: -31; TRPV1 potentiator: -4; Sfp inh: 16%

How did CC(C)CCNC(=O)C1CCC(CNS(=O)(=O)c2cccc3nsnc23)CC1 (stereo unspecified) do in these assays?
ClpP mod: 2.8%&0.3%; gsp agonist: -4%; gsp antag: -8%; D2 PAM: -8; TRPV1 potentiator: 0; Sfp inh: 2%

Results for COc1ccc(-c2nnc(SC3CCOC3=O)n2C2CCCCC2)cc1OC (stereo unspecified) ?
Menin-MLL FL inh: -0.7; ClpP mod: -1.5%; gsp agonist: 17%; gsp antag: 1%; D2 PAM: 0; TRPV1 potentiator: 6; Sfp inh: 17%

What do the screens show for `CC1(C2CCC3C4CCC5CC6(CCC5(C)C4C(=O)CC32C)OCCO6)OCCO1` (stereo unspecified)?
gsp agonist: 8%; gsp antag: -3%; D2 PAM: -4

Results for O=C(NCCNC(=O)c1ccccc1Br)c1ccccc1Br ?
Menin-MLL FL inh: -0.4; ClpP mod: -1.6%; gsp agonist: -40%[inhibitor]; gsp antag: 5%; D2 PAM: -3; TRPV1 potentiator: 9; Sfp inh: 38%[activator]

What do the screens show for `CC1(C)CC(=O)C(C=NCCN2CCN(C(=O)c3ccc(F)cc3)CC2)=C(O)C1`?
Menin-MLL FL inh: 5.4; ClpP mod: 1.3%; gsp agonist: 3%; gsp antag: 2%; D2 PAM: -12; TRPV1 potentiator: 14; Sfp inh: 6%

Results for COc1ccc(NC(=O)C2CCCN2C(=O)NCc2ccccc2)c(OC)c1 (stereo unspecified) ?
Menin-MLL FL inh: 1.6; ClpP mod: -0.2%; gsp agonist: -16%; gsp antag: 12%; D2 PAM: -10; TRPV1 potentiator: -10; Sfp inh: 14%

Results for CN1C(=O)/C(=C\c2ccc(OC(=O)c3ccco3)cc2)SC1=S ?
Menin-MLL FL inh: inconclusive; ClpP mod: -11%; gsp agonist: 20%[15.4 µM]; gsp antag: 4%; D2 PAM: -8; TRPV1 potentiator: 0; Sfp inh: -9%

How did CCc1ccccc1OCCOc1ccc(C)cc1OC do in these assays?
Menin-MLL FL inh: -1.5; ClpP mod: 1.5%; gsp agonist: inconclusive; gsp antag: -15%; D2 PAM: -11; TRPV1 potentiator: 5; Sfp inh: 19%

How did CC(=O)N1c2ccc(S(=O)(=O)NCC3CCC(C(=O)N4CCCC(C)C4)CC3)cc2CC1C (stereo unspecified) do in these assays?
ClpP mod: -0.4%; gsp agonist: 4%; gsp antag: -20%; D2 PAM: -3; TRPV1 potentiator: 13; Sfp inh: 21%

Results for Cc1ccnc(NC(=S)NC(=O)c2ccco2)c1 ?
Menin-MLL FL inh: -7.1; ClpP mod: -3.8%; gsp agonist: -17%[15.4 µM]; gsp antag: 14%; D2 PAM: -6; TRPV1 potentiator: 6; Sfp inh: inconclusive

Results for O=C(Nc1ccc(F)cc1)c1cccc(N2C(=O)C3C4CCC(C4)C3C2=O)c1 (stereo unspecified) ?
Menin-MLL FL inh: -1.7; ClpP mod: 0.5%; gsp agonist: -9%; gsp antag: 0%; D2 PAM: -11; TRPV1 potentiator: -43; Sfp inh: 2%

How did CCCn1nnc(NC(=S)NC(=O)c2ccc(-c3ccc(Br)cc3)o2)n1 do in these assays?
Menin-MLL FL inh: 2.0; ClpP mod: 3.7%; gsp agonist: 3%; gsp antag: -15%; D2 PAM: -20; TRPV1 potentiator: 15; Sfp inh: -26%

How did COCCNC(=O)C(=O)NCC1OCCN1S(=O)(=O)c1cccs1 (stereo unspecified) do in these assays?
Menin-MLL FL inh: 1.9; gsp agonist: 6%[15.4 µM]; gsp antag: 5%; D2 PAM: -5; TRPV1 potentiator: -8; Sfp inh: 15%

How did CSc1ccccc1NC(=O)Cc1ccc(Br)cc1 do in these assays?
Menin-MLL FL inh: -0.2; ClpP mod: -4.1%; gsp agonist: -17%; gsp antag: -2%; D2 PAM: -13; TRPV1 potentiator: 9; Sfp inh: 11%

How did O=c1[nH]c2cccc(Cl)c2c2ccccc12 do in these assays?
ClpP mod: -2.0%; gsp agonist: -39%; D2 PAM: -7

How did CCC(C)N1CC23C=CC(O2)C(C(=O)OC)C3C1=O (stereo unspecified) do in these assays?
Menin-MLL FL inh: 3.9; ClpP mod: 0.3%; gsp agonist: -3%; gsp antag: 9%; D2 PAM: -1; TRPV1 potentiator: -18; Sfp inh: 16%

What do the screens show for `CCCCNC(=O)c1onc(CSc2ccccc2)c1C(=O)NCCCC`?
ClpP mod: 1.4%; gsp antag: -10%; D2 PAM: -5; TRPV1 potentiator: 9

What do the screens show for `COc1ccc(NC(=O)CSc2nnc(COc3ccccc3)n2Cc2ccco2)cc1OC`?
Menin-MLL FL inh: 3.2; ClpP mod: -1.0%; gsp agonist: -3%; gsp antag: -31%; D2 PAM: 2; TRPV1 potentiator: -13; Sfp inh: -14%

Results for CCCCn1c(NCCC)nc2c1c(=O)[nH]c(=O)n2C ?
Menin-MLL FL inh: 1.5; ClpP mod: -5.4%; gsp agonist: -13%; gsp antag: 7%; D2 PAM: 2; TRPV1 potentiator: 8; Sfp inh: 34%[activator]

What do the screens show for `Cc1cccc(C(=O)O)c1NC(=O)Cc1cccc2ccccc12`?
Menin-MLL FL inh: -1.5; gsp agonist: -56%[inhibitor]; gsp antag: 4%; D2 PAM: -4; TRPV1 potentiator: 1; Sfp inh: 8%

How did CC(C)COc1ccc(C(=O)CCN2CCCCC2)cc1 do in these assays?
Menin-MLL FL inh: 1.0; ClpP mod: 0.4%; gsp agonist: -3%; gsp antag: 5%; D2 PAM: -10; TRPV1 potentiator: -7; Sfp inh: -22%

Results for Cc1nc(C2COc3ccccc3O2)sc1C(=O)O (stereo unspecified) ?
Menin-MLL FL inh: -5.6; ClpP mod: 0.8%; gsp agonist: -1%[15.4 µM]; gsp antag: -17%; D2 PAM: -14; TRPV1 potentiator: -1; Sfp inh: 15%

What do the screens show for `CCOc1ccccc1CNC(=O)CCNC(=O)Cn1ccc2ccccc2c1=O`?
Menin-MLL FL inh: 0.1; ClpP mod: inconclusive; gsp agonist: 4%; gsp antag: 2%; D2 PAM: 2; TRPV1 potentiator: 16; Sfp inh: -5%

Results for CCOc1ccc(CCNC(=O)c2nnn(CC(=O)Nc3c(C)cc(C)cc3C)c2N)cc1OCC ?
Menin-MLL FL inh: 19; ClpP mod: -0.3%; gsp agonist: -3%; gsp antag: 4%; D2 PAM: -13; TRPV1 potentiator: -4; Sfp inh: 0%

How did COC(=O)C1=C(C)NC(C)=C(C(=O)OCC(C)C)C1c1ccccc1[N+](=O)[O-] (stereo unspecified) do in these assays?
Menin-MLL FL inh: -2.0; ClpP mod: -1.5%; gsp antag: 7%; D2 PAM: -10; Sfp inh: 40µM*

Sorted by formula weight (highest first): some entries from above.
What do the screens show for `CCOc1ccccc1CNC(=O)CCNC(=O)Cn1ccc2ccccc2c1=O`?
Menin-MLL FL inh: 0.1; ClpP mod: inconclusive; gsp agonist: 4%; gsp antag: 2%; D2 PAM: 2; TRPV1 potentiator: 16; Sfp inh: -5%

How did COC(=O)C1=C(C)NC(C)=C(C(=O)OCC(C)C)C1c1ccccc1[N+](=O)[O-] (stereo unspecified) do in these assays?
Menin-MLL FL inh: -2.0; ClpP mod: -1.5%; gsp antag: 7%; D2 PAM: -10; Sfp inh: 40µM*

How did CC(C)COc1ccc(C(=O)CCN2CCCCC2)cc1 do in these assays?
Menin-MLL FL inh: 1.0; ClpP mod: 0.4%; gsp agonist: -3%; gsp antag: 5%; D2 PAM: -10; TRPV1 potentiator: -7; Sfp inh: -22%

2 entries drawn at random from those above, as already listed:
What do the screens show for `CCCCNC(=O)c1onc(CSc2ccccc2)c1C(=O)NCCCC`?
ClpP mod: 1.4%; gsp antag: -10%; D2 PAM: -5; TRPV1 potentiator: 9

How did COC(=O)C1=C(C)NC(C)=C(C(=O)OCC(C)C)C1c1ccccc1[N+](=O)[O-] (stereo unspecified) do in these assays?
Menin-MLL FL inh: -2.0; ClpP mod: -1.5%; gsp antag: 7%; D2 PAM: -10; Sfp inh: 40µM*

Additional structures:
How did Cc1ccc(-c2ccc(CCC(=O)O)n2-c2cccc(O)c2)cc1 do in these assays?
Menin-MLL FL inh: 9.7; ClpP mod: -20%&-12%; gsp agonist: -33%; gsp antag: -16%; D2 PAM: -4; TRPV1 potentiator: -13; Sfp inh: 6%

How did CC(C)CNC1CS(=O)(=O)CC1O (stereo unspecified) do in these assays?
Menin-MLL FL inh: -0.7; ClpP mod: 0.0%; gsp agonist: -26%; gsp antag: 9%; D2 PAM: 4; TRPV1 potentiator: 2; Sfp inh: 11%

What do the screens show for `O=C(NCC1CCCO1)c1ccc(NS(=O)(=O)c2cccs2)cc1` (stereo unspecified)?
Menin-MLL FL inh: -5.1; ClpP mod: -3.8%; gsp agonist: 28%; gsp antag: -4%; D2 PAM: -9; TRPV1 potentiator: -13; Sfp inh: inconclusive

Results for CCCCNC(=S)N/N=C/c1ccccc1F ?
Menin-MLL FL inh: 3.3; ClpP mod: inconclusive; gsp agonist: 29%[15.4 µM]; gsp antag: 4%; D2 PAM: -11; TRPV1 potentiator: -7; Sfp inh: 3%
